Screening data (PubChem BioAssay)
Vaccinia mCherry: vaccinia inhibition (mCherry reporter); AID 720579; 0.63% of 310,000 active; Potency, µM (series often up to 36.5 µM), without a hit: at the top dose activity change, negative = inhibition, hits mostly inhibitors; Vaccinia virus mCherry reporter infection, fluorescence; about a quarter of the inactives have no number; active = well fitted inhibition curve with a large enough effect; inconclusive = small, poorly fitted or top-dose-only effect; inactive = no such curve, though single readings can be large or run the other way; tested in A549 cells; note: nearly all actives have a fitted effect of over 35% in size; inactives centre near -10
VACV Venus inh: vaccinia inhibition (Venus reporter) | Potency, µM (top dose mostly 36.5 µM), without a hit: at the highest dose activity change, negative = inhibition, most hits filed as inhibitors | 0.46% of 330,000 active | Vaccinia virus Venus reporter expression, fluorescence; active means well fitted inhibition curve with a large enough effect; inconclusive means small, poorly fitted or top-dose-only effect; inactive means no such curve, though single readings can be large or run the other way; tested in A549 cells; note: nearly all actives have a fitted effect of over 30% in size; inactives centre near -10
Numbers without * were called inactive; i = inactive; ? = inconclusive; nt = not tested or not shown; & = joins results of further samples. % is set by controls: 0 for no effect and ±100 for the full control effect; potency is the fitted concentration of half-maximal effect. Compounds were not picked by outcome, and some 0.87% of all compounds hit somewhere here.

Second line of a record: Vaccinia mCherry, VACV Venus inh
- CCOC(=O)/C(C)=N/NC(=O)c1ccc([N+](=O)[O-])cc1
  -9.5%, 5.1%
- O=S(=O)(c1ccccc1)n1nc(-c2ccc(Cl)cc2)nc1NCc1ccc(F)cc1
  -25.7%, -27.1%
- COc1cccc(CN2CC(C(=O)NCc3ncc(C)[nH]3)CCC2=O)c1 (stereo not given)
  i, -10.3%
- Cc1noc2ncnc(N3CCN(c4ccccc4F)CC3)c12
  -5.1%, -3.4%
- Cc1nn(CC(=O)NCc2ccccn2)c(C)c1[N+](=O)[O-]
  i, 6.7%
- Cc1cc(C(=O)COC(=O)c2cnccn2)c(C)n1-c1ccc(Br)cc1
  i, -12.6%
- CC(C)[C@H](NC(=O)[C@@H]1CSC2c3ccccc3C(=O)N21)C(=O)NCc1ccncc1 (stereo not given in full)
  -10.7%, -5.6%
- CCOc1ccc(NC2=C(Cl)C(=O)N(C3CCCCC3)C2=O)cc1
  -5.0%, -1.8%
- O=C(C1CCCN(S(=O)(=O)c2ccc(Br)cc2)C1)N1CCN(Cc2ccccc2)CC1 (stereo not given)
  ?, ?
- O=C(CCN1CCN(CC(=O)Nc2ccccc2F)CC1)Nc1ccccc1F
  nt, -23.9%
- CCCOc1ccc(Cc2c(Cl)nc(SC)nc2OC)cc1
  i, -5.9%
- CC/C(=N\NC(=O)c1c[nH]c2ccccc12)c1cccs1
  ?, -21.5%
- COc1c(Cl)cc(C(=O)Nc2ccc(Cl)cn2)cc1Cl
  nt, -10.6%
- CC1CCc2nc3ccccc3c(C(=O)OCC(=O)N3CCc4ccccc43)c2C1 (stereo not given)
  11.8%, -13.3%
- CCOc1ccc(CCNC(=O)c2ccc(-c3nc(COc4ccc(C)cc4)c(C)o3)cc2)cc1
  -7.6%, -12.1%
- O=C(CNc1cccc(S(=O)(=O)N2CCCCC2)c1)Nc1cccc(F)c1
  -13.1%, -23.4%
- COc1ccccc1-n1ccnc(SCC(=O)NC2CCCCC2)c1=O
  -16.7%, -8.3%
- Cc1c(C(=O)Oc2ccc(Cl)cc2)n(C)oc1=O
  i, -5.1%
- Nc1nc2c(c3c1c(=O)oc1ccccc13)CCCCC2
  nt, -0.8%
- CCCS(=O)(=O)NC(=O)C1(C)CCCN(C(=O)c2sccc2C)C1 (stereo not given)
  4.0%, -1.6%
- Cc1nc(SCC(=O)N2CCCC2=O)c2c(C)c(C)sc2n1
  i, ?
- O=C(Nc1cccnc1Cl)c1cc(-c2ccc(Cl)cc2)on1
  -1.9%, 1.7%&2.3%
- CCn1c(Cc2ccccc2)nnc1SCC(=O)Nc1nccs1
  i, -13.5%
- COC(=O)/C(=N/Nc1ccccc1C)Sc1nnc(C(O)c2ccccc2)n1-c1ccccc1 (stereo not given)
  i, -24.2%
- C#CCNC(=O)C1=C[C@@H](c2ccccc2)C[C@@H](OCCCCO)O1
  i, -25.8%
- CN(C)c1cccc(NC(=O)Cc2ccc(F)cc2)c1
  -6.2%, -0.1%
- Fc1ccc(NC(=S)N2CCSC2c2cccs2)cc1 (stereo not given)
  -12.5%, -5.2%
- O=C(NC1CCSc2ccccc21)c1cccc(OC(F)F)c1 (stereo not given)
  -18.7%, -14.3%
- O=C(O)c1ccc(Oc2cc(Oc3ccc(C(=O)O)cc3)cc([N+](=O)[O-])c2)cc1
  -16.5%, 0.9%
- CCOC(=O)c1cc(S(=O)(=O)N2CCN(c3ccc(C(C)=O)cc3)CC2)[nH]n1
  -14.6%, 1.2%

(list continues)
Second line of a record: Vaccinia mCherry, VACV Venus inh
- COC(=O)c1cn(-c2ccccc2)c(C)c1C(=O)OC
  ?, -13.2%
- N#CCCN(/N=C/c1cccnc1)C1=NS(=O)(=O)c2ccccc21
  i, -11.6%
- Cc1cccc(C(=O)NC2CCN(CC(=O)NCc3cccs3)CC2)c1
  -9.6%, 3.1%
- CC(C)N(CC(N)=O)C(=O)Cc1coc2cc3c(cc12)CCC3
  -27.5%, -8.8%
- Clc1cccc(N2CCNCC2)c1
  -0.1%, -17.8%
- O=C(Nc1ccccc1N1CCCCC1)c1ccc(Cl)cc1
  -12.4%, -9.9%
- CCCc1nn2c(=O)cc(COC(=O)c3cccc(NC(=O)c4cccs4)c3)nc2s1
  i, -13.0%
- CC(C)c1ccccc1NC(=S)NC1CCCCC1
  10.1%, 7.3%
- CCOC(=O)c1c(C)oc2cc(Cl)c(O)c(CN(C)C)c12
  -24.5%, -6.7%
- Cc1cc(C(=O)Nc2sc3c(c2C#N)CCC(C(C)(C)C)C3)no1 (stereo not given)
  -17.0%, -28.9%
- CCCN(C(=O)Cc1nc(-c2ccc(OC)cc2)no1)c1ccccc1C
  -7.1%, -5.0%
- CCNC(=S)N1CCN(c2ncccn2)CC1
  i, -3.6%
- CCCOc1ccc(NC(=O)CC2C(=O)N(c3ccc(OC)cc3)C(=O)N2CCc2ccncc2)cc1 (stereo not given)
  0.1%, -1.8%
- Cc1oncc1C(=O)Nc1cccc(C#N)c1
  i, -8.9%
- COc1ccc(CC(=O)NC(C)c2nnc(SCC(=O)Nc3cc(C)ccc3OC)n2C)cc1 (stereo not given)
  3.7%, -4.1%
- Brc1cccc[n+]1Cc1ccccc1C[n+]1ccccc1Br
  27.0%, -15.6%
- O=C(NC1CCS(=O)(=O)C1)/C(=C/c1ccc(Cl)cc1)NC(=O)c1ccccc1 (stereo not given)
  -13.0%, -3.7%
- COc1ccc(CCNS(=O)(=O)c2ccc3c(c2)CC(C)N3C(C)=O)cc1OC (stereo not given)
  -1.2%, -15.6%
- CC1CCCCN1Cc1nc2ccccc2c(=O)[nH]1 (stereo not given)
  -4.9%, -8.7%
- O=C1[C@@H]2C(c3ccccc3Cl)=NO[C@@H]2C(=O)N1Cc1ccccc1
  nt, 4.2%
- CCCn1c(=S)[nH]c2cc(C(=O)N3CCN(C4CCCCC4)CC3)ccc2c1=O
  -5.4%, -7.7%
- COC(=O)CNc1nc(-c2ccncc2)nc2ccccc12
  -0.7%, -12.4%
- COc1ccc(NC(=O)N2c3ccccc3C(C)=CC2(C)C)cc1
  -5.3%, -2.0%
- O=C(Nn1cnnc1)C1CCCN1S(=O)(=O)c1ccc(F)cc1 (stereo not given)
  i, -14.8%
- CC(C)(C)NS(=O)(=O)c1cccc(S(=O)(=O)c2cccc(S(=O)(=O)NC(C)(C)C)c2)c1
  ?, ?
- NS(=O)(=O)c1ccc(CCNC(=O)CCCCCn2c(=O)[nH]c3ccccc3c2=O)cc1
  i, -11.5%
- Cc1ccc(NC(=O)C2CC2C)cc1S(=O)(=O)N1CCOCC1 (stereo not given)
  -1.9%, -18.9%
- CN(C)c1ccc(CN2CCC(C(=O)NC(c3ccc(F)cc3)c3ccc4ccccc4n3)CC2)cc1 (stereo not given)
  ?, ?
- C#Cc1ccc(NC(=O)C2(C)CCN2C(=O)CC(c2ccccc2)c2ccccc2)cc1 (stereo not given)
  11.3%, -7.7%
- O=c1c2cc(Cl)ccc2nc(-c2ccccc2)n1O
  i, -14.1%

Grouped by structure, the entries above containing an aryl thioether with sulfur outside any ring.
Second line of a record: Vaccinia mCherry, VACV Venus inh
- CCCOc1ccc(Cc2c(Cl)nc(SC)nc2OC)cc1
  i, -5.9%
- COc1ccccc1-n1ccnc(SCC(=O)NC2CCCCC2)c1=O
  -16.7%, -8.3%
- Cc1nc(SCC(=O)N2CCCC2=O)c2c(C)c(C)sc2n1
  i, ?
- CCn1c(Cc2ccccc2)nnc1SCC(=O)Nc1nccs1
  i, -13.5%
- COc1ccc(CC(=O)NC(C)c2nnc(SCC(=O)Nc3cc(C)ccc3OC)n2C)cc1 (stereo not given)
  3.7%, -4.1%

The list goes on:
Second line of a record: Vaccinia mCherry, VACV Venus inh
- COc1cccc(-n2c(SCC(=O)N3CCCc4ccccc43)nc3c([nH]c4ccccc43)c2=O)c1
  -4.5%, -2.7%
- Cc1ccc(C(=O)CCC(=O)NN2C(=O)NC3(CCCCC3)C2=O)cc1
  -6.9%, -0.6%
- COc1cc(OC)cc(-c2nnc(N(C)C(=O)c3ccncc3)s2)c1
  -5.5%, -18.6%
- COc1ccc(/C=N\NC(=O)c2ccccc2F)cc1COc1ccc(F)cc1F
  -8.5%, -22.0%
- CCCNC(=O)C(Cc1ccc(Cl)cc1)NC(=O)c1ccc(C#N)cc1 (stereo not given)
  i, -12.6%
- CC1(c2nnc(-c3ccccc3)o2)CC(c2ccccc2)=NO1 (stereo not given)
  -1.5%, -6.5%
- Cc1cccc(C)c1NC(=S)N1CCCN(C)CC1
  i, 0.9%
- COc1ccc2oc(C(=O)OCC(=O)Nc3cc(S(=O)(=O)N4CCOCC4)ccc3OC)c(C)c2c1
  i, -9.5%
- CCOC(=O)c1csc(-c2csc(CCNC(=O)c3ccccc3)n2)n1
  -2.1%, 1.6%
- O=C(COc1ccc(Br)cc1F)NCC1(N2CCCCC2)CCCCC1
  ?, 0.0%
- CC(=O)N1c2ccc(S(=O)(=O)N3CCCC(C(=O)NCc4ccccc4)C3)cc2CC1C (stereo not given)
  4.5%, -7.4%
- FC(F)(F)C1=CC(c2ccccc2)=NCCN1
  nt, 15.0%
- CCN1CCN(C(=O)C2CCN(Cc3cc(Cl)ccc3O)CC2)CC1
  -11.7%, -5.0%
- Cn1c(SCc2n[nH]c(=S)o2)nnc1-c1ccccc1
  i, -5.3%
- Cc1cn(C)c(CC(=O)Nc2cccc(Cl)c2C)c1C(=O)O
  -16.5%, -5.3%
- Cc1ccccc1CN(CC1CCC(C(=O)O)CC1)C(=S)Nc1ccccc1F (stereo not given)
  -7.0%, -16.3%
- Cc1cc(C)c(S(=O)(=O)/N=C2\C=C(Nc3ccc(C(=O)O)cc3)C(=O)c3ccccc32)c(C)c1
  ?, ?
- CCCNC(=O)c1ccc2c(c1)N=C(CCC)c1ccccc1S2
  ?, ?
- COC(=O)CC1C(=O)NCCN1C(=O)Nc1cccc(Cl)c1 (stereo not given)
  -9.9%, -6.0%
- COCc1[nH]nc2c1C(c1c(F)cccc1Cl)C(C#N)=C(N)O2 (stereo not given)
  nt, -16.9%
- COC(=O)CCN1CCC2CC1c1cc(-c3cccc(C)c3)ccc12 (stereo not given)
  -2.2%, -18.1%
- CCCN1CNc2c(c(=O)[nH]c(=S)n2CCc2cccs2)C1
  i, -16.2%
- CS(=O)(=O)c1ccc(Cl)c(NC(=O)COC(=O)c2ccc(-n3cnnn3)cc2)c1
  -11.9%, -7.8%
- COc1ccc(OC)c(NC(=O)Nc2nc(C(N)C(C)C)cs2)c1 (stereo not given)
  9.4%, -19.9%
- CCOC(=O)CCSc1nc(C)c2cc(C)ccc2n1
  i, -4.8%
- CN(CC(=O)NCc1ccc(F)cc1)S(=O)(=O)c1ccc(Br)s1
  ?, -18.4%
- CC1(C(=O)NS(=O)(=O)c2ccccc2OC(F)(F)F)CCN1C(=O)c1ccccc1 (stereo not given)
  18.4%, -4.7%
- NC(=O)C1CCN(C(=O)c2ccc3ccccc3c2)CC1
  i, 0.0%
- CCOC(=O)c1oc2c(c1C)-c1nn(Cc3c(F)cccc3Cl)cc1CC2
  -9.6%, -8.5%
- CCOC(=O)c1ccccc1NS(=O)(=O)c1ccccc1
  -17.7%, -9.6%

Single entries from the results shown:
COc1ccc(CC(=O)NC(C)c2nnc(SCC(=O)Nc3cc(C)ccc3OC)n2C)cc1 (stereo not given) in VACV Venus inh is listed with -4.1%
CC1CCc2nc3ccccc3c(C(=O)OCC(=O)N3CCc4ccccc43)c2C1 (stereo not given) in Vaccinia mCherry is listed with 11.8%
CN(C)c1cccc(NC(=O)Cc2ccc(F)cc2)c1 in Vaccinia mCherry is listed with -6.2%
CCOc1ccc(NC2=C(Cl)C(=O)N(C3CCCCC3)C2=O)cc1 in Vaccinia mCherry is listed with -5.0%
Brc1cccc[n+]1Cc1ccccc1C[n+]1ccccc1Br in Vaccinia mCherry is listed with 27.0%

Further structures:
Second line of a record: Vaccinia mCherry, VACV Venus inh
- N/C(=N\OC(=O)/C=C/c1ccccc1)c1ccc(Br)cc1
  i, -0.9%
- C=CCSSCC=C
  -15.0%, -2.4%
- COc1ccc(C2C(C)C3(O)CC(C#N)(C(=O)N3)C2(C#N)C#N)cc1 (stereo not given)
  -3.7%, 6.8%
- CC(=O)N(c1ccc(Cl)cc1)c1c[nH]c2ccccc12
  -13.8%, -26.2%
- CS(=O)(=O)Nc1ccccc1C(=O)Nc1cccc(Cl)c1
  ?, -22.6%
- O=C1C(c2ccc(F)cc2)N(Cc2ccccc2Cl)C(=O)CN1C1CCCCC1 (stereo not given)
  5.8%, 12.9%
- Cc1ccc(NC(=O)c2ccccc2OCc2c(C)noc2C)cc1S(=O)(=O)N(C)C
  7.0%, -12.2%
- C=CCn1c(SCC(=O)NC2CCS(=O)(=O)C2)nc2sc(CC)cc2c1=O (stereo not given)
  nt, -31.8%
- COc1cc(/C=N/n2c(C)nnc2C)cc(OC)c1OC
  nt, -9.3%
- O=S(=O)(Oc1ccccc1)c1cccnc1
  -6.9%, -3.2%
- O=C(C1CCCCC1C(=O)N1CCCCC1)N1CCCCC1 (stereo not given)
  i, -2.6%
- CCOc1cc(/C=N\Nc2ncc(F)c(N3CCOCC3)n2)ccc1Oc1nc(Cl)ncc1F
  i, -24.1%
- COc1ccccc1CNC(=O)CCNC(=O)Cn1cnc2ccccc2c1=O
  -9.7%, -9.0%
- CCCc1cc(=O)[nH]c(SCC(=O)c2cc(C)n(C)c2C)n1
  nt, 3.6%
- CCOC(=O)/C=C/c1ccc(C(F)(F)F)cc1S(=O)(=O)NC(C)(C)C
  -25.5%&-1.0%, -23.5%&-14.0%
- CCOc1ccccc1N1CCN(C(=O)CCCc2nc3ccccc3s2)CC1
  -13.4%, -3.6%
- Cc1ccccc1C(=O)Nc1ccc(S(=O)(=O)N2CC(C)OC(C)C2)cc1 (stereo not given)
  i, -0.2%
